Source: PubChem BioAssay (National Center for Advancing Translational Sciences (NCATS))
SmPrx2 inh: blocks S. mansoni peroxiredoxin 2 enzymatic activity; Potency, µM; S. mansoni Prx2 activity coupled to TGR/GSH (TGR is thioredoxin glutathione reductase), NADPH fluorescence loss, qHTS; some inactives read as strong as hits; 0.07% of 65,000 active; active means full or partial inhibition curve with a strong effect at the top dose; inconclusive means weaker partial or single-point curve; inactive means no accepted curve; note: series up to 57 µM; many of its hits are not listed in these tables
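Enzyme mix: 100 uM NADPH, 25 nM TGR, 700 uM GSH, 50 nM Prx2 in 100 mM phosphate pH 7.4, 10 mM EDTA, 0.01% Tween-20. 15 min RT with compound; NADPH/GSH added, H2O2 starts reaction; NADPH fluorescence read 8 min.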
Anthrax LT inh: blocks cellular internalization of anthrax lethal toxin | Cells, anthrax lethal toxin internalization, FRET ratio (460/530) | Potency, µM (top dose mostly 40 µM), for the others: at the top dose activity change, negative = inhibition, most hits filed as inhibitors | 0.67% of 70,000 active | AID 912; active = well fitted falling ratio curve with the 530 nm signal flat; inconclusive = other ratio curves, or a change in one channel alone; inactive = flat curves in the ratio and both channels; the % refers to the ratio; note: % is set by controls: 0 for no effect and ±100 for the full control effect; nearly all actives have a fitted effect of over 50% in size; tested in ME-180 cells; beta-lactamase reporter
* hit, by the source's call; ? = inconclusive; . = not tested or not shown; & = joins results of further samples; [ ] = another dose, or the depositor's remark. Potency is the fitted concentration of half-maximal effect. Only part of the results is shown. The share of hits here may be higher or lower than overall.

cpd	canonical_smiles	SmPrx2 inh	Anthrax LT inh
1	Cc1cc(NC(=O)CCC(=O)N(Cc2ccco2)C2(C(=O)NC3CCCCC3)CCN(C)CC2)no1	>57	3.7%
2	O=C(COC(=O)c1ccc2c(c1)OCO2)NCc1ccc(Cl)cc1	>57	-16.6%
3	Cc1cccn2c(=O)c3cc(C#N)c(=N)n(Cc4cccnc4)c3nc12	>57	11.3%
4	CCn1c2ccccc2c2nnc(SCC(=O)N3CC(C)OC(C)C3)nc21 (centres undefined)	>57	-16.2%
5	CC(=O)n1nc(-c2ccco2)nc1N	>57	-20.3%
6	Cc1c(Cl)cccc1N(CC(=O)NC1CCCCC1)S(C)(=O)=O	>57	-8.5%
7	COC(=O)C1=[N+]([O-])OC(C(=O)OC)C1c1c[nH]c2ccccc12 (centres undefined)	>57	3.2%
8	O=C(CNS(=O)(=O)c1cccs1)N1CCN(c2ccccn2)CC1	>57	-5.2%
9	CCCn1nnc(NC(=O)COc2cc(C)ccc2C(C)C)n1	>57	-27.6%
10	CS(=O)(=O)N(CC(=O)N1CCN(c2cccc(Cl)c2)CC1)c1ccccc1	>57	-3.3%
11	O=C(c1ccc(C23CC4CC(CC(C4)C2)C3)o1)N1CCOCC1	>57	-2.5%
12	CCc1ccccc1NC(=O)CN(C)C(=O)CN1C(=O)NC2(CCCCCC2)C1=O	>57	13.0%
13	Cc1cnc(CNc2ccnc(-c3ccccc3C)n2)cn1	>57	-4.9%
14	Cc1ccc(Cl)c(OCC(O)CN(CCO)CCO)c1 (centres undefined)	>57	?
15	Cc1cccc(OCCNc2nc3c(c(=O)n(C)c(=O)n3C)n2C)c1	>57	6.2%
16	Cc1ccc2nc3c(cc(C(=O)NCc4ccccc4)c(=N)n3CCCn3ccnc3)c(=O)n2c1	>57	?
17	O=C(Nc1ccc2oc(=O)c(C(=O)O)cc2c1)Oc1ccccc1	>57	-5.6%[8 µM]
18	CC1=C(/C=C/C(C)=C/C=C/C(C)=C/C=O)C(C)(C)CCC1	.	?
19	Oc1ccc2oc3c(c2c1/C=N/n1cnnc1)CCCC3	.	2.4%
20	CCOC(=O)CNC(=O)c1cn(CC(C)C)c(=O)c2cc(OC)c(OC)cc12	>57	-18.2%
21	c1cncc(-c2nc3ccccc3o2)c1	>57	-4.2%
22	c1ccc2c(c1)c1c3n2CCNC3CCC1 (centres undefined)	>57	?
23	COc1ccc(C2CC(=O)C(C=NCCO)=C(O)C2)cc1OC (centres undefined)	.	7.4%
24	O=C(NCCOc1nc(N2CCCCC2)nc(N2CCOCC2)n1)Nc1ccccc1	>57	-16.8%
25	Cn1c(=O)oc2cc(S(=O)(=O)NCc3ccncc3)ccc21	>57	?
26	Cc1cc(C)nc(SCC(=O)Nc2ncc3c(n2)CC(C)(C)CC3=O)n1	>57	9.4%
27	CN1CCN(CC(=O)Nc2cccc3ccccc23)CC1	>57	-1.1%[8 µM]
28	O=C(c1ccncc1)N1CCN(C(=O)c2ccco2)CC1	>57	3.4%
29	Cc1ccc(-n2c(N)c(C(N)=O)sc2=S)c(C)c1	>57	-3.3%
30	CC(C)(C)OC(=O)N1CCN(c2ccc(NC(=O)c3cc4ccccc4oc3=O)cc2)CC1	>57	2.4%
31	O=C(Cc1nc2ccccc2[nH]1)NCc1ccco1	>57	?
32	COC(=O)C1CCN(C(=O)COc2cc3sc(C)nc3c3sccc23)CC1	>57	14.3%
33	O=C(COc1ccccc1)Nc1ccc(Cl)c(-c2nc3ncccc3o2)c1	>57	-5.7%
34	CCOC(=O)c1ccc(NC(=O)CC2Sc3ncnn3C2=O)cc1 (centres undefined)	>57	-14.1%
35	O=C(Nc1cccc(O)c1)c1ccc(Br)c(S(=O)(=O)N2CCCCC2)c1	>57	-7.5%
36	CC(=O)c1c(O)cc(C)n(Cc2ccccc2)c1=O	>57	?
37	Cc1cc(C)c2nc(C(F)(F)F)nc(N3CCN(C(=O)c4ccco4)CC3)c2c1	>57	-7.3%
38	Clc1ccccc1-c1cc(NCCN2CCOCC2)ncn1	.	-9.2%
39	COc1ccc(CCNC(=O)c2nnn(-c3ccccc3OC)c2N)cc1OC	>57	2.2%
40	O=C(NCCc1ccc(Cl)cc1)C1CCN(c2cnccn2)CC1	>57	-9.4%

Filtered by structure, the compounds so far containing two or more sulfur atoms
cpd	canonical_smiles	SmPrx2 inh	Anthrax LT inh
8	O=C(CNS(=O)(=O)c1cccs1)N1CCN(c2ccccn2)CC1	>57	-5.2%
29	Cc1ccc(-n2c(N)c(C(N)=O)sc2=S)c(C)c1	>57	-3.3%
32	COC(=O)C1CCN(C(=O)COc2cc3sc(C)nc3c3sccc23)CC1	>57	14.3%

More compounds:
cpd	canonical_smiles	SmPrx2 inh	Anthrax LT inh
41	COc1ccc(OC)c(C(c2nnnn2CC2CCCO2)N2CCN(C3CCCC3)CC2)c1 (centres undefined)	>57	19.8%
42	COC(=O)C1=C2SC(C)C(=O)N2C(N)=C(C#N)C1c1cc(OC)c(OC)c(OC)c1 (centres undefined)	>57	-3.5%
43	O=S(=O)(c1cccc(-c2nnc(-c3cccnc3)o2)c1)N1CCCCC1	.	?
44	O=S(=O)(c1ccc(Cl)s1)N1CCN(C/C=C/c2ccccc2)CC1	>57	?
45	CCOc1ccccc1NC(=O)c1ccc(S(=O)(=O)N2CCOCC2)cc1	>57	-16.9%
46	COC1CCCCC1NS(=O)(=O)c1ccc(Cl)cc1 (centres undefined)	>57	1.6%
47	CCc1nnc(NC(=O)CSc2nnc(-c3ccoc3C)n2-c2cccc(C)c2)s1	>57	3.5%
48	Nc1nc2ccc(C(=O)Nc3ccccc3)cc2s1	>57	-16.4%
49	COC(=O)c1cc2c(cc1NC(=O)CSCCc1ccccn1)OCO2	>57	2.7%
50	CCOC(=O)C1CCN(c2ncnc3c2cnn3-c2ccccc2)CC1	>57	-1.1%
51	CCCC(c1nnnn1C1CCCC1)N1CCN(C(=O)c2ccco2)CC1 (centres undefined)	>57	4.6%
52	c1cnc(-c2nnc3n2CCCCC3)cn1	>57	6.5%
53	CCOC(=O)CSc1nnc(CNC(=O)c2ccc(OC)cc2OC)n1C	>57	4.6%
54	COc1ccc(C)cc1S(=O)(=O)N(CC(=O)N1CCOCC1)Cc1ccccc1	>57	3.8%
55	COc1ccc(-c2nnc(SCC#CCO)o2)cc1OC	>57	-4.1%
56	Sc1ccc2ccccc2c1CNCc1ccccc1	>57	?
57	c1ccc(N=NNc2ccccc2)cc1	.	?
58	O=C(NCc1ccccn1)c1c(O)c2cccc3c2n(c1=O)CC3	>57	-6.5%
59	COc1cccc2c(=O)c(C(=O)NCc3cccs3)c[nH]c12	>57	?
60	COc1ccc(CNc2cc(-c3cccc(C#N)c3)ncn2)c(OC)c1	>57	?
61	O=C(CSc1nnc(-c2ccc(O)cc2)n1Cc1ccco1)N1CCc2ccccc2C1	>57	-7.7%
62	O=C(NCCCN1CCN(Cc2ccccc2)CC1)C1CCN(S(=O)(=O)N2CCCC2)CC1	>57	4.1%
63	COc1cc(NC(=O)Cc2nn(C)c(=O)c3ccccc23)cc(OC)c1	>57	-10.0%
64	COC(=O)c1ccc(CSc2nc(C)nc3c2c(=O)n(C)c(=O)n3C)o1	>57	-1.0%
65	COc1ccc(-c2[nH]c(-c3ccc(F)cc3)nc2SCC(=O)NCc2ccco2)cc1OC	>57	-8.9%
66	O=C(Cn1cc2c(n1)CCCCC2)N1CCCCC1	>57	5.1%
67	COc1cccc(CNC(=O)C2CCN(C(=O)N(C)C)CC2)c1	>57	10.8%
68	c1cnc(N2CCSCC2)nc1	>57	-0.4%
69	CCC(Oc1ccc2ccccc2c1)C(=O)O (centres undefined)	>57	-12.0%
70	CN(C1CCCCC1)S(=O)(=O)c1ccccc1	>57	-11.9%
71	Cc1ccc(N[C@H](c2ccccc2)c2ccc3cccnc3c2O)cc1	>57	?
72	COc1ccc(CNC(=O)c2ccc3nccnc3c2)cc1	>57	-16.5%
73	CC(C)(C)NCC1(CO)SC(N)=NC1=O (centres undefined)	>57	-5.3%
74	CCOC(=O)C1=C(C)NC(=O)NC1c1cn(-c2ccccc2)nc1-c1cccs1 (centres undefined)	.	?
75	CC1(C)CC(=O)c2cc(OCC(=O)NCC3CCCO3)ccc2O1 (centres undefined)	>57	-15.2%
76	O=C(OCC(=O)N1CCN(C(=O)c2ccco2)CC1)c1cc(=O)c2ccccc2o1	>57	-11.0%
77	CN(C)C(CNS(=O)(=O)c1ccc(Br)cc1)c1cccnc1 (centres undefined)	>57	9.8%
78	O=C(CCCC(=O)n1cnc2ccccc21)n1cnc2ccccc21	.	-3.3%
79	COc1ccc(OC)c(-n2nnnc2SCC(=O)NCc2ccc3c(c2)OCO3)c1	>57	-5.3%
80	Cc1ccc(C(=O)COC(=O)CNC(=O)c2ccco2)cc1	>57	-27.5%

Individual results from the results shown:
`CCCC(c1nnnn1C1CCCC1)N1CCN(C(=O)c2ccco2)CC1` (centres undefined) | SmPrx2 inh: >57
`CCn1c2ccccc2c2nnc(SCC(=O)N3CC(C)OC(C)C3)nc21` (centres undefined) | Anthrax LT inh: -16.2%
`Sc1ccc2ccccc2c1CNCc1ccccc1` | SmPrx2 inh: >57
`O=C(OCC(=O)N1CCN(C(=O)c2ccco2)CC1)c1cc(=O)c2ccccc2o1` | SmPrx2 inh: >57
`O=C(c1ccncc1)N1CCN(C(=O)c2ccco2)CC1` | Anthrax LT inh: 3.4%

The list continues.
cpd	canonical_smiles	SmPrx2 inh	Anthrax LT inh
81	Cc1cc(C)c2c3c(sc2n1)C(=O)N(C)CC(=O)N3	>57	2.2%
82	CN1CCN(c2ccnc(-c3ccc(N(C)C)cc3)n2)CC1	>57	5.6%
83	CCCOc1ccc(NC(=O)C2CCCNC2=O)cc1 (centres undefined)	>57	13.5%
84	Cc1cc(C)nc(NC2=NCC(=O)N2c2ccc3c(c2)OCCO3)n1	>57	-1.0%
85	CCn1cc(C(=O)NCc2ccco2)c(=O)c2cc(S(=O)(=O)N3CCCCCC3)ccc21	>57	?
86	c1cncc(-c2nccc(NCc3cccs3)n2)c1	>57	10.8%
87	O=C(CN1CCOCC1)N1CCc2ccccc2C(c2ccccc2)C1 (centres undefined)	>57	1.0%
88	COc1ccc(S(=O)(=O)N(CC(=O)N2CCN(C)CC2)c2ccccc2)cc1OC	>57	-6.6%
89	Fc1ccc(C(c2ccc(F)cc2)N2CCN(C/C=C\c3ccccc3)CC2)cc1	>57&>57&>57	?
90	O=P(O)(O)COc1ccccc1O	>57	7.1%
91	COCCn1c(=O)c(-c2cccs2)nc2cnc(N3CCOCC3)nc21	>57	?
92	CCCN1CCO[C@@H]2c3cc(O)ccc3OC[C@H]21	>57&>57	?
93	Cc1ccc(N)c(N)c1	.	10.7%
94	O=C(Cn1c(=O)oc2ccccc21)Nc1ccc2c(c1)OCCO2	>57	1.0%
95	O=c1c2ccccc2c2ccccc2c(=O)n1CC1CCCO1 (centres undefined)	.	-6.7%
96	Clc1cccc(CSc2nnc(-c3ccccn3)n2Cc2ccco2)c1	>57	.
97	Cc1c(/C(O)=C2/C(=O)C(=O)N(CCN3CCOCC3)C2c2cccs2)cnn1-c1ccccc1 (centres undefined)	>57	-4.7%
98	CC(C)NC(=O)CN(CCc1ccccc1)S(C)(=O)=O	>57	?
99	CCOc1ccc(NC(=O)CSc2nnnn2CC(=O)O)cc1	>57	-7.3%
100	COc1ccc2ccccc2c1CN1CCN(C(=O)c2ccccc2)CC1	.	-22.1%
101	Cc1csc2c(=O)n3c(nc12)CCCCC3	>57	-9.9%
102	CC(C)C1C(C#N)=C(N)Oc2n[nH]c(-c3ccccc3)c21 (centres undefined)	>57	3.8%
103	COc1ccccc1OCCSc1nnnn1-c1ccc(C)cc1	>57	?
104	Cc1ccc(P(=O)(CC(=O)O)c2ccc(C)cc2)cc1	>57	-10.0%
105	COC(=O)[C@@]1(Cc2ccc(OC)cc2)[C@H]2c3cc(C(=O)N(C)C)n(Cc4c(CO)[nH]cc(C)c4=O)c3C[C@H]2CN1C(=O)c1ccccc1	>57	4.3%
106	CCCOc1ccc(C2C(C(=O)c3ccc(C)o3)=C(O)C(=O)N2Cc2cccnc2)cc1 (centres undefined)	>57	4.4%
107	CC1CCN(c2nc3c(c(=O)n(C)c(=O)n3C)n2Cc2ccccc2)CC1	>57	-25.0%
108	Cc1onc(-c2c(Cl)cccc2Cl)c1C(=O)NCCCN1CCOCC1	>57	1.1%
109	Cc1ccc(C(=O)Nc2ccc(S(=O)(=O)N3CCc4ccccc43)cc2)o1	>57	-5.0%
110	Cc1nn(CC(=O)O)c(C)c1C	>57	-2.2%
111	O=C(Nc1ccc(O)cc1)C1CC=CCC1 (centres undefined)	>57	-1.4%
112	Cc1cc(C(=O)N2CCN(c3ncccn3)CC2)cs1	>57	2.1%
113	COCc1nnc(SCC(=O)Nc2cccc(Cl)c2C)n1-c1ccccc1	>57	-10.1%
114	O=C(O)c1cc2cc(OCc3ccccc3)ccc2[nH]1	>57	-1.6%
115	CCCC(=O)Nc1ccc(NC(=O)C2CC2)cn1	>57	-29.7%
116	O=C(Nc1nnc(C2CC2)s1)C1Cc2ccccc2CN1S(=O)(=O)c1cccs1 (centres undefined)	>57	0.0%
117	COc1ccc(OC)c(C2=NO[C@@H]3C(=O)N(c4cc(Cl)ccc4OC)C(=O)[C@H]23)c1	>57	-2.2%
118	CCOC(=O)C1=C(C)N(C)C(C)=C(C(=O)OCC)C1c1cccnc1	>57	4.0%
